Rce1 inhib: blocks yeast Ras-converting enzyme | calls only | Q03530 | yeast membranes, quenched prenylated peptide cleavage fluorescence | 290,000 tested, 0.27% active;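 active means fall in fluorescence gain of 50% or more versus controls, with final raw signal at or below 3038400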;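 further: plate controls were neutral control wells for no effect and wells lacking membranes for full effect; tested at 10 µM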
Target sequence (Q03530 whole entry, looked up): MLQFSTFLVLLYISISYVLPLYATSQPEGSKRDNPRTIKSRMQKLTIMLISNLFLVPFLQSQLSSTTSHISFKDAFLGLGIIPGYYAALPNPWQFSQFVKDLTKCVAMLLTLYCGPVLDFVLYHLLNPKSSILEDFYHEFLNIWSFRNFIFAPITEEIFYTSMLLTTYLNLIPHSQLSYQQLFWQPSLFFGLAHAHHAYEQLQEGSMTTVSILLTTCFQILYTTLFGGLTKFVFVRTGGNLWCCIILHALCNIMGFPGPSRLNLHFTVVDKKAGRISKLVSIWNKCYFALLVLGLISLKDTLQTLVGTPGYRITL
PABP FP inh: PABP-poly(A) binding inhibition; P11940; PABP-poly(A) RNA binding, fluorescence polarization; inhibition, % at 35 µM; 290,000 tested, 1% active;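 active means 50% or more with normal probe brightness, or confirmed in later tests; about a fifth of its hits are not listed in these tables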;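 further: calls also rest on retests at 20 µM and on dose response follow-up; controls were probe without protein and protein plus probe with vehicle; some compounds called inactive have numbers as strong as hits; many hits fall short of the cut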
Target sequence (P11940 whole entry, looked up): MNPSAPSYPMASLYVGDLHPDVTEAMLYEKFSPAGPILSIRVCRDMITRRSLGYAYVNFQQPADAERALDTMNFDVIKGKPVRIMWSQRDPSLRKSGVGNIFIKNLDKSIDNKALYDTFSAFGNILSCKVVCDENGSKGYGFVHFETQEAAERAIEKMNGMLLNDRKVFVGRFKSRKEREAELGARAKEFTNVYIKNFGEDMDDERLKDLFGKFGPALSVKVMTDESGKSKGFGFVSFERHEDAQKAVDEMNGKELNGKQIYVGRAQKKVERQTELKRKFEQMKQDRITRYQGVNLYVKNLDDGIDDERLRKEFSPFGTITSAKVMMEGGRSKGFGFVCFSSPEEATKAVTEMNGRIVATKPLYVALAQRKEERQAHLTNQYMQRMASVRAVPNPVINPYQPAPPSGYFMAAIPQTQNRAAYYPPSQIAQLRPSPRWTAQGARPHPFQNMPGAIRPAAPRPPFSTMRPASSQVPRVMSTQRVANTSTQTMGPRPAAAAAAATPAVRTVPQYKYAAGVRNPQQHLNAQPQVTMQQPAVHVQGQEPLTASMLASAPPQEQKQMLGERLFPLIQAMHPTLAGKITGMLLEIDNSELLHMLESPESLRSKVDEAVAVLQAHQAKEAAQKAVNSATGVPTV
Env fusion inh: HIV envelope-mediated fusion inhibition. HeLa-JRFL Env/CEM21 cell fusion, luciferase. inhibition, % at 12.3 µM. 360,000 tested, 1.1% active;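 active means mean replicate inhibition score of at least 50 and every replicate individually at or above 50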;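 further: 0% = plate neutral controls and 100% = maraviroc near 300 nM; one replicate is shown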
eIF4H inh: inhibitors of RNA binding by human eIF4H | inhibition, % at 35 µM | Q15056 | AID 2012 | eIF4H fluorescence polarization binding assay | 290,000 tested, 0.94% active;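 active means 50% or more with normal probe brightness, or confirmed in later tests; about a fifth of its hits are not listed in these tables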;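 further: calls also rest on retests at 20 µM and on dose response follow-up; 0% = protein and probe with vehicle and 100% = probe without protein; strong numbers were not always called active; many hits fall short of the cut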
Yeast UUG start: modulators of start codon recognition fidelity in yeast; 350,000 tested, 0.13% active; S. cerevisiae UUG-firefly luciferase reporter, luminescence/redox ratio; activity score, % at 18.7 µM;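 active means replicate mean at a twofold rise or more, about +100% in these data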;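 further: firefly luciferase made from a UUG start codon reports start codon fidelity; reporter light over untreated wells divided by growth signal over untreated wells; some hits fall short of that in this replicate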
MT1-MMP act inh: MT1-MMP (human) activation inhibition; HT1080 RFP-PRO-GFP cells, GFP/RFP ratio fluorescence, overnight; percent of plate control window, DMSO zero; 360,000 tested, 0.061% active; GFP/RFP ratio change, % at 20 µM;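 active means GFP/RFP ratio change of at least 30% with cell ATP level not reduced by more than half and red fluorescence within 50% of control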; further: strong numbers were not always called active
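Compound: 20 µM single dose, 1% DMSO / System: HT1080 RFP-PRO-GFP cells / Controls: DMSO and RFP-L50D-GFP cell wells / Read-out basis: GFP/RFP fluorescence ratio / Schedule: overnight compound exposure at 37 °C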
CSC inhib: blocks cancer stem cells; cancer stem cell-like cells viability, luminescence; 300,000 tested, 1.1% active; AID 2717; inhibition, % at 7.5 µM;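 active means mean at 75% or more and at least half the replicates too; tested in HMLE shEcad cells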;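 further: 0% = median of negative and 100% = median of positive control wells; the first replicate is given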
MT1-MMP act inh RFP: also measured in MT1-MMP act inh; calls as there; RFP signal change, %; measured here: RFP expression control read;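 0 = vehicle wells; hits needed this value within 50% of zero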
The depositor's hits bear a star; i = inactive; / = not tested or not shown; & = joins results of further samples.

Value order – Rce1 inhib, PABP FP inh, Env fusion inh, eIF4H inh, Yeast UUG start, MT1-MMP act inh, MT1-MMP act inh RFP, CSC inhib
#1 CCc1ccc(NC(=O)CCNC(=O)Cn2cnc3ccccc3c2=O)cc1
  i, 3, 4, -5, -14, -1, -2, -2
#2 Cn1cc(C(=O)C(=O)N2CCCC2)c2ccccc21
  i, 3, -7, -6, -23, 0, -1, -20
#3 Cc1ccccc1C(=O)NNC(=S)Nc1cccc(C(F)(F)F)c1
  i, 8, 41, 22, -26, 3, -3, 6
#4 Cc1nnc(SCC(=O)NCC(=O)Nc2ccc(F)c(F)c2F)n1N
  /, /, -3, /, -9, -1, 2, -7
#5 Cc1sc2nc(CN(C(=O)c3cccs3)C3CCCC3)[nH]c(=O)c2c1C
  i, -1, 19, -13, -2, 1, -15, 14
#6 CCc1ccc(NCCC(=O)c2ccc(Br)cc2)cc1
  i, -3, /, 3, /, 3, 6, 0
#7 Cc1ccc2c(C(=O)CN3CCCC(C)C3)c(C)[nH]c2c1 (stereo not drawn)
  i, -2, -4, -11, -8, 3, 5, 11
#8 CSc1nc2cc(C)nn2c(-c2ccccc2Cl)c1C#N
  i, 3, -16, -10, /, 4, -2, 1
#9 O=C(Nc1ccccc1C(F)(F)F)c1cc2ccccc2o1
  i, 2, -62, 3, 8, -1, -6, -9
#10 O=C(CN1C(=O)c2cccnc2Oc2ccc(Cl)cc21)NC1CCCCC1
  i, -12, 10, 2, -7, -3, -4, /
#11 CN(C)c1cccc(C(=O)OCC(=O)Nc2ccccc2Cl)c1
  i, 1, 15, 30, -7, 4, 6, -16
#12 COc1ccc(NC(c2ccccc2)c2ccncc2)cc1 (stereo not drawn)
  i, 30, -17, 3, 13, 0, 2, 15
#13 Cc1ccc(S(=O)(=O)NN=C2CC3CCC2(C)C3(C)C)cc1 (stereo not drawn)
  /, /, 25, /, 0, 9, -2, /
#14 CC1(C)CC(=O)C2=C(C1)N(c1ccc(F)cc1)C(=O)CC2c1cccnc1 (stereo not drawn)
  i, -23, 3, -5, -18, 2, 4, -2
#15 Cc1ccc2nc(NC(=O)CCn3c(=O)sc4ccccc43)sc2c1
  i, 2, -32, 5, -4, 0, 1, 5
#16 CC(=O)N/C(N)=N/c1nc2cc([N+](=O)[O-])ccc2o1
  i, -3, -21, -2, /, 5, -8, -4
#17 COc1cc2c(cc1OC)C(C)N(C(=O)c1cc3ccccc3o1)CC2 (stereo not drawn)
  i, -1, /, -9, 22, -8, 0, 10
#18 COc1ccc(NC(=O)N(C)C[C@@H]2Oc3c(NC(=O)Nc4c(C)noc4C)cccc3C(=O)N([C@@H](C)CO)C[C@@H]2C)cc1
  /, /, -31, /, 4&-20, 1, 5, -21
#19 O=C(NCC1CCCO1)c1ccc(Br)s1 (stereo not drawn)
  i, -6, 14, 1, 15, -4, 0, -1
#20 CCOC(=O)NS(=O)(=O)c1ccc(CCNC(=O)c2cc(C)on2)cc1
  i, 1, -33, -2, -17, 0, 3, -1
#21 COc1ccc(/C=C/C(=O)NCC(=O)N2CCC(N(C)CCN3CCOCC3)CC2)cc1OC
  i, -1, 9, 5, /, 1, 4, -45
#22 CCOC(=O)N1CCC(NC(=O)c2cc(S(=O)(=O)N3CCCCC3)ccc2F)CC1
  i, 9, 4, -7, -1, 6, 1, -12
#23 Cc1[nH]c2ccccc2c1SCc1nnc(SCc2ccc(Cl)cc2)n1C
  i, 14, 42, -7, -15, -8, -12, 7
#24 O=C(Nc1ccc2c(c1)OCO2)c1ccc([N+](=O)[O-])cc1[N+](=O)[O-]
  i, 5, -13, 1, 7, -1, 0, /
#25 CCOC(=O)C1(Cc2ccc(OC)cc2)CCN(C(=O)CCn2cccn2)CC1
  i, 9, 6, 6, 1, 4, 2, 15
#26 O=C(c1ccccc1)c1ccc(NCCCn2ccnc2)c([N+](=O)[O-])c1
  i, 8, 16, -1, -2, -1, -22, 37
#27 CC1(c2nnc(-c3ccccc3)o2)CC(c2ccc([N+](=O)[O-])cc2)=NO1 (stereo not drawn)
  i, /, -18, /, -10, 7, -4, 1
#28 COc1ccc(OCC(=O)NC(=S)Nc2ccc(S(=O)(=O)Nc3cc(OC)nc(OC)n3)cc2)cc1
  i, 3, 12, -4, /, -3, -1, -19
#29 COc1ccc(S(=O)(=O)N2CCOCC2)cc1NC(=O)COC(=O)c1oc2ccccc2c1C
  /, /, /, /, -13, 2, -2, 0
#30 CC1CCCC(N2CCN(C(=O)c3ccc([N+](=O)[O-])cc3)CC2)C1 (stereo not drawn)
  i, 8, -19, 6, -6, 2, -2, -10
#31 Cc1nn(CCC(=O)NNC(=S)Nc2ccc([N+](=O)[O-])cc2)c(C)c1[N+](=O)[O-]
  i, 22, 6, 3, /, 0, 2, -10
#32 OC(Cn1cncn1)(c1ccc(F)cc1)c1ccc(Cl)cc1 (stereo not drawn)
  i, -20, -10, 8, -37, -6, -2, 1
#33 O=C(Cc1ccc(Cl)cc1)NNC(=O)c1cnccn1
  i, -6, 7, -12, -11, -1, 2, 8
#34 NC(=O)c1cc(S(=O)(=O)Nc2cccc(F)c2)co1
  i, 13, -27, -3, -13, 1, 3, -18
#35 O=C1OC(c2ccccc2)=NC12CC2c1ccc(Cl)cc1 (stereo not drawn)
  i, -3, -7, 14, -35, 4, 1, 43
#36 O=C1[C@H]2[C@@H](/C=C/c3ccccc3)N3C(=O)CN(Cc4ccccn4)C(=O)[C@@]3(Cc3ccccc3)[C@H]2C(=O)N1c1ccccc1
  i, 7, 3, 0, -5, 3, 4, -8
#37 CCc1ccccc1N(CC(=O)NCc1ccccc1)C(=O)CCC(=O)Nc1ccccn1
  i, 7, -4, 4, -11, -1, 1, -11
#38 O=C(NC1CCN(Cc2ccccc2)CC1)C1CCCN(S(=O)(=O)c2cccc3nonc23)C1 (stereo not drawn)
  i, -6, /, -6, -11, 2, 0, -8
#39 CC1CCN(C(=O)CC(NC(N)=O)c2ccccc2Cl)CC1 (stereo not drawn)
  i, -6, 12, -3, -1, 3, 6, 0
#40 CCOC(=O)c1cccc(NC(=O)CN(c2ccc(C)cc2)S(=O)(=O)c2c(C)n[nH]c2C)c1
  i, 3, /, -10, -18, -2, -5, -9
#41 CC(=O)N1C(=O)N(C)C2C1N(C)C(=O)N2C(C)=O (stereo not drawn)
  i, 0, /, -2, /, /, /, -15
#42 CCN(CC)C(=S)SCC(=O)c1ccccc1
  i, 3, -148, -3, -19, -2, -3, 9
#43 CCOc1ccccc1NC(=O)NC(C)c1ccncc1 (stereo not drawn)
  i, -5, 7, 2, /, -2, 1, -18
#44 CCC1(c2ccc(F)cc2)NC(=O)N(CC(=O)N2CCN(S(=O)(=O)c3ccc(C)cc3C)CC2)C1=O (stereo not drawn)
  /, /, -2, /, -7, -6, -27, /
#45 CCCCC(=O)NC(=S)Nc1cccc(NC(=O)c2ccco2)c1
  i, 1, 26, -13, /, 2, 4, -3
#46 O=C(NC(=S)NCC1CCCO1)c1ccc(Cl)cc1Cl (stereo not drawn)
  i, -3, 0, 5, /, 4, 2, -8
#47 COc1cccc(CN(C)C(=O)CNC(=O)c2ccc3c(c2)OCO3)c1OC
  i, 34, 16, 5, -13, 1, 4, 1
#48 CN1CCN(c2ccc(Cl)cc2NC(=O)CCN2C(=O)c3ccccc3C2=O)CC1
  i, 5, 13, 14, /, -5, 1, -1
#49 COc1cccc(C2NC(=S)NC3=C2CCc2ccccc23)c1 (stereo not drawn)
  i, -1, /, -10, /, -4, 4, -1
#50 CCCC(=O)Nc1c(C(=O)OCC)[nH]c2ccccc12
  i, -9, -5, -6, -19, -3, 2, -7
#51 CCOC(=O)C1(Cc2cccc(OC)c2)CCN(Cc2cccn2-c2nccs2)CC1
  i, -7, 0, -18, 1, -8, -3, 10
#52 Cc1ccc(N2C(=O)c3ccccc3NC2C(C)Cc2ccc3c(c2)OCO3)cc1 (stereo not drawn)
  i, -1, -61, 2, -22, -10, -9, 54
#53 CCOc1ccccc1N1CCN(C(=O)/C=C/c2cccc([N+](=O)[O-])c2)CC1
  i, 49, 11, 16, -9, 0, -5, -20
#54 OC1CCCN(Cc2nc(Cc3ccccc3Cl)no2)C1 (stereo not drawn)
  i, -12, 13, -2, /, 1, -4, -2
#55 CN(C)c1nc(Nc2ccccc2)nc(N(C)C)n1
  i, 4, -7, 5, -8, -1, -2, -4
#56 CC(=O)C(Sc1nn(C)c(=S)s1)C(=O)Nc1ccccc1 (stereo not drawn)
  i, 27, -68, -16, -24, 1, 4, 13
#57 CC1=C(C(=O)N(C)C)CC(CC(=O)NC2CC2)C(=O)N1Cc1ccc(C(C)(C)C)cc1 (stereo not drawn)
  /, /, -94, /, -17, 4, 6, /
#58 COc1ccc(OC)c(-c2csc(NC(=O)c3ccccc3F)n2)c1
  /, -3, -11, -6, -24, 0, 6, 57
#59 CN1CCN(c2ccc(Cl)cc2NC(=O)/C=C/c2ccc(F)cc2)CC1
  i, -3, 1, -6, 6, -2, -1, 6
#60 O=C(O)CN1CCN(Cc2ccc(F)cc2Cl)C1=O
  i, 17, 5, 1, 0, 7, 5, /

(list continues)
Value order – Rce1 inhib, PABP FP inh, Env fusion inh, eIF4H inh, Yeast UUG start, MT1-MMP act inh, MT1-MMP act inh RFP, CSC inhib
#61 CCc1ccc(NC(=O)C2CCN(c3c(N4CCCC4)c(=O)c3=O)CC2)cc1
  i, 18, -2, 9, -19, -1, 4, -14
#62 O=C(OCc1nnc(-c2ccccc2)o1)c1ccc([N+](=O)[O-])o1
  i, /, -6, /, /, 5, 1, 2
#63 O=C(COC(=O)C1CC(=O)N(c2ccc3c(c2)OCCO3)C1)NC1CCCc2ccccc21 (stereo not drawn)
  i, -3, /, 4, 1, 1, 5, -7
#64 CCc1cccc(CC)c1NC(=S)NCC(c1cccnc1)N1CCOCC1 (stereo not drawn)
  i, -28, -21, 6, -14, 0, 4, 27
#65 O=C(N=C1SC2CS(=O)(=O)CC2N1Cc1ccccc1)C1CCCO1 (stereo not drawn)
  i, 1, -4, -2, -3, -5, 1, 4
#66 O=C(CSc1cn(Cc2ccccc2)c2ccccc12)N1CCOCC1
  i, 7, 39, 0, 8, -7, -4, 8
#67 CC(=O)Nc1coc2ccc(Br)cc12
  i, 5, /, 1, -5, -2, 3, -11
#68 COC(=O)c1c(NC(NC(=O)c2ccccc2)(C(F)(F)F)C(F)(F)F)sc2c1CCN(C)C2
  i, 13, 0, 10, -11, -3, 2, -18
#69 COc1ccccc1-c1noc(CCC(=O)Nc2cccc(C)c2)n1
  i, -6, /, 0, -3, -1, -3, -13
#70 COc1ccccc1S(=O)(=O)Nc1cc(S(=O)(=O)N2CCCCC2)ccc1N1CCOCC1
  i, 11, 1, -4, /, 1, 3, -4
#71 Cc1cc(NC(=O)c2ccco2)ncc1NC(=O)CCc1ccccc1
  i, 7, /, 4, -13, 1, 3, -4
#72 O=C(NCc1ccccc1Cl)c1ccccc1Oc1ccccc1
  i, 2, 29, -2, /, -3, -1, -4

Profiles, quoted from the list:
COc1ccccc1S(=O)(=O)Nc1cc(S(=O)(=O)N2CCCCC2)ccc1N1CCOCC1 is listed as Rce1 inhib: i; PABP FP inh: 11; Env fusion inh: 1; eIF4H inh: -4; Yeast UUG start: /; MT1-MMP act inh: 1; MT1-MMP act inh RFP: 3; CSC inhib: -4
O=C(CSc1cn(Cc2ccccc2)c2ccccc12)N1CCOCC1 is listed as Rce1 inhib: i; PABP FP inh: 7; Env fusion inh: 39; eIF4H inh: 0; Yeast UUG start: 8; MT1-MMP act inh: -7; MT1-MMP act inh RFP: -4; CSC inhib: 8

Screening results: PubChem BioAssay, several laboratories

Hits appear at their usual frequency. About 3% of those tested had a hit in this group.
